Screening results from PubChem.
rRNA inh HTS: inhibitors of bacterial rRNA selective over humanized ribosomes. E. coli WT GFP vs humanized-ribosome RFP mutants, fluorescence, 24 h; stronger effect = lower value; DMSO median 0, no signal -100. hit rate 1.6% among 350,000. GFP signal change (wild-type ribosome), % (test concentration not listed). AID 720706;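 active means significant combined selectivity score with lowered wild-type GFP, culture density cut under 30%, mutant RFP and density less affected; inactive means any of these conditions unmet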; further: one replicate is shown; some compounds called inactive have numbers as strong as hits
AF4-AF9 inh: MLL-AF4/AF9 protein interaction inhibition | P42568 | AlphaScreen, biotin-AF4 peptide binding to FLAG-AF9 | inhibition, % at 10 µM | hit rate 0.47% among 350,000 | AID 651704;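 active means every replicate reaching a set inhibition limit, whatever the replicate mean, cut at about 25% in these data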;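 further: 0% = plate neutral control median and 100% = total signal loss; the record names both 10 and 1 µM as test concentration; the first replicate is given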
Target sequence (P42568 whole entry, looked up): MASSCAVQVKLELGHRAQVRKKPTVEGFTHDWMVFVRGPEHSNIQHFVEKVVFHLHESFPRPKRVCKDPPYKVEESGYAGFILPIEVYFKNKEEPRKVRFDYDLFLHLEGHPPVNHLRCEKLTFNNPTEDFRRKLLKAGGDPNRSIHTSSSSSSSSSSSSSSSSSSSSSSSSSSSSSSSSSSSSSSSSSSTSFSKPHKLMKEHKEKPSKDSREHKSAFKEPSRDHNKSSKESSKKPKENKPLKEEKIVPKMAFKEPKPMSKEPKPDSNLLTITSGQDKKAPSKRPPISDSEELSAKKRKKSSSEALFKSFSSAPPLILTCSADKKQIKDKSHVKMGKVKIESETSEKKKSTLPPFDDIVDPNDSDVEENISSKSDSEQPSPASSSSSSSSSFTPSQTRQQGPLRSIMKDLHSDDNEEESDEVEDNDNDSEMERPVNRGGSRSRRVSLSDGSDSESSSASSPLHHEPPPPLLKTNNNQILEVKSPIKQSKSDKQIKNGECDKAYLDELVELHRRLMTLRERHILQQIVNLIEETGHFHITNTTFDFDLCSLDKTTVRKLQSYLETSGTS
rRNA inh HTS OD600: further read-out of rRNA inh HTS, marked with its call; OD600 change, %; measured here: OD600 growth;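 optical density of the mix in the first replicate; 0 = DMSO median and -100 = no signal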
rRNA inh HTS RFP: second read-out of rRNA inh HTS, no call of its own (marks repeat the call); RFP signal change, %; measured here: RFP humanized mutant strains;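 first replicate; 0 = DMSO median and -100 = no signal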
The depositor's hits bear a star; & = joins results of further samples. Not all compounds are listed. The share of hits here may be higher or lower than overall.

AF4-AF9 inh | rRNA inh HTS | rRNA inh HTS OD600 | rRNA inh HTS RFP | SMILES
-0.3 | -0.2 | -3.2 | -0.2 | COc1ccc(S(=O)(=O)Nc2ccc3c(c2)C(=O)N([C@H](C)CO)C[C@@H](C)[C@H](CN(C)S(=O)(=O)c2ccc(Cl)cc2)OCCCC[C@H](C)O3)cc1
-2.6 | 3.3 | 9.9 | 1.2 | COCC#Cc1cnc2c(c1)C(=O)N([C@@H](C)CO)C[C@@H](C)[C@H](CN(C)C(=O)CN1CCOCC1)O2
-2.7 | 4.2 | -0.8 | -1.1 | CCS(=O)(=O)Nc1ccc2c(c1)C(=O)N(C)[C@@H]1CC[C@@H](CC(=O)N3CCN(C)CC3)O[C@H]1CO2
-3.3 | -7.0 | -10.3 | -2.9 | CC1(C(=O)NC2CCCCCC2)CCN1C(=O)C1(c2ccccc2)CC1 (configuration not stated)
-2.7 | -2.1 | 6.8 | -3.4 | CC(C)(C)OC(=O)NCCc1nc(NC(=O)OCc2ccccc2)sc1C(=O)O
-0.9 | 2.3 | 5.8 | -2.4 | Cc1ccc(-c2cnc3c(c2)C(=O)N([C@H](C)CO)C[C@@H](C)[C@@H](CN(C)C)O3)cc1
-3.4 | 4.9 | 7.2 | -0.2 | COCC(=O)N1CC(=O)N2[C@H](CO)[C@H](c3ccc(Br)cc3)[C@@H]2C1
0.7 | 1.6 | 7.6 | -0.8 | O=C(C(=O)N1CCN(S(=O)(=O)c2cccc(C(F)(F)F)c2)CC1)c1cccc(C(F)(F)F)c1
-0.9 | 1.8 | 9.2 | -0.4 | C[C@@H]1CN([C@@H](C)CO)C(=O)Cc2cc(NC(=O)CCCN(C)C)ccc2O[C@H]1CN(C)C(=O)Nc1ccc(F)cc1
1.6 | 1.8 | 8.9 | -2.6 | COc1ccc2c3c([nH]c2c1)[C@@H](CO)N(C(=O)c1ccccc1)CC31CCN(C)CC1
-1.5 | -3.7 | -5.3 | 11.2 | C=CCOc1ccc(Cl)cc1-c1noc(-c2csc([C@H]3C[C@H](O)[C@@H](CO)O3)n2)n1
20.1 | -2.8 | 4.7 | 0.7 | C[C@H]1CCCCO[C@@H](CN(C)Cc2ccc3c(c2)OCO3)[C@@H](C)CN([C@@H](C)CO)C(=O)c2cc(N(C)C)ccc2O1

3 compounds from above, ordered by the number in rRNA inh HTS OD600, high to low.
AF4-AF9 inh | rRNA inh HTS | rRNA inh HTS OD600 | rRNA inh HTS RFP | SMILES
0.7 | 1.6 | 7.6 | -0.8 | O=C(C(=O)N1CCN(S(=O)(=O)c2cccc(C(F)(F)F)c2)CC1)c1cccc(C(F)(F)F)c1
-3.4 | 4.9 | 7.2 | -0.2 | COCC(=O)N1CC(=O)N2[C@H](CO)[C@H](c3ccc(Br)cc3)[C@@H]2C1
-2.7 | 4.2 | -0.8 | -1.1 | CCS(=O)(=O)Nc1ccc2c(c1)C(=O)N(C)[C@@H]1CC[C@@H](CC(=O)N3CCN(C)CC3)O[C@H]1CO2

(continued)
AF4-AF9 inh | rRNA inh HTS | rRNA inh HTS OD600 | rRNA inh HTS RFP | SMILES
3.2 | -0.7 | 2.3 | 2.8 | C[C@H](CO)N1C[C@H](C)[C@H](CN(C)C(=O)Nc2ccc(C(F)(F)F)cc2)Oc2ccc(NS(=O)(=O)c3ccc(F)cc3)cc2CC1=O
-0.1 | -0.2 | 0.8 | 1.7 | Cc1ccc(S(=O)(=O)N(C)C[C@@H]2Oc3ccc(NC(=O)C4CC4)cc3C(=O)N([C@@H](C)CO)C[C@H]2C)cc1
-0.3 | -0.6 | 1.9 | -1.6 | COc1ccc(NC(=O)N(C)C[C@H]2Oc3ncc(-c4ccc(C#N)cc4)cc3C(=O)N([C@H](C)CO)C[C@H]2C)cc1
-2.8 | 4.6 | 6.8 | 0.4 | CCC(=O)Nc1ccc2c(c1)C(=O)N(C)[C@@H]1CC[C@@H](CC(=O)NCC3CC3)O[C@@H]1CO2
-1.5 | -0.9 | -8.3 | -0.8 | CO[C@@H]1CN(C)C(=O)c2ccc(NC(=O)C3CCCC3)cc2OC[C@@H](C)N(C)C[C@H]1C
-0.3 | 21.2 | 12.9 | 3.6 | C[C@H](NC(=O)c1ncn2c1c(=O)[nH]c1ccc(Br)cc12)c1ccccc1
2.1 | 2.1 | -4.9 | -0.7 | CC1(C(=O)NCc2ccco2)Cc2c(-c3ccc(C(N)=O)cc3)ccnc2O1 (configuration not stated)
-2.5 | 1.7 | 0.0 | 1.3 | COc1ccc(CN(C)C[C@@H]2Oc3ccc(NC(=O)Nc4ccccc4)cc3C(=O)N([C@@H](C)CO)C[C@@H]2C)cc1
15.6 | -40.8 | -72.1 | 1.8 | C[C@H](CO)N1C[C@H](C)[C@@H](CN(C)C(=O)CN(C)C)Oc2cc(C#CCC3CCCC3)ccc2S1(=O)=O
-4.6 | 6.0 | 12.4 | -2.4 | C[C@@H]1CN([C@H](C)CO)C(=O)c2c(c3ccccc3n2C)-c2ccccc2CO[C@@H]1CN(C)Cc1cccc(F)c1
0.5 | -2.1 | -0.6 | -0.6 | C[C@@H]1CN([C@H](C)CO)C(=O)Cc2cc(NC(=O)CCN3CCOCC3)ccc2O[C@H]1CN(C)Cc1ccc(C(=O)Nc2ccccc2N)cc1
-1.6 | 24.2 | 19.1 | 2.3 | COC(=O)[C@]12CCCCC=C1N(Cc1ccc(Cl)cc1Cl)C(=O)[C@H](CC(=O)NCc1cccc3ccccc13)C2

Next section:
AF4-AF9 inh | rRNA inh HTS | rRNA inh HTS OD600 | rRNA inh HTS RFP | SMILES
-0.2 | 1.0 | 8.8 | -1.5 | C[C@H]1CN([C@@H](C)CO)C(=O)c2cc(-c3ccc(C(=O)N(C)C)cc3)cnc2O[C@@H]1CN(C)C(=O)c1cccnc1
-8.9 | 1.2 | 2.8 | 0.9 | C[C@H]1CCCCO[C@H](CN(C)CC2CC2)[C@@H](C)CN([C@@H](C)CO)C(=O)c2cc(NS(=O)(=O)c3ccc(F)cc3)ccc2O1
5.7 | -42.2 | -72.5 | 12.9 | OC[C@@H]1Nc2ccc(-c3ccccc3)cc2[C@@H]2[C@H]1CCN2Cc1ccc(F)cc1
3.1 | -8.3 | -10.7 | 1.7 | O=C(Nc1ccc(Cl)c(Cl)c1)N[C@H]1CC[C@H](CCn2cc(C3CC3)nn2)O[C@@H]1CO
7.3 | -4.0 | 2.0 | -0.5 | C[C@H](CO)N1C[C@H](C)[C@@H](CN(C)C(=O)Nc2ccc3c(c2)OCO3)OCCCC[C@H](C)Oc2ccc(NS(=O)(=O)c3cccs3)cc2C1=O
-0.4 | 0.7 | -2.2 | 1.1 | CC(C)C[C@H]1CN(CCCC[C@@H]2CNC(=O)C(=O)N2Cc2ccccc2)C(=O)C(=O)N1Cc1ccccc1
-2.3 | 2.2 | 5.7 | -0.7 | CN1CCN(C(=O)C[C@@H]2CC[C@@H]3[C@@H](COc4ccc(NC(=O)c5cscn5)cc4C(=O)N3C)O2)CC1
-0.4 | 1.9 | 1.7 | 0.0 | C[C@@H]1CN([C@@H](C)CO)C(=O)c2cc(NC(=O)Nc3cccc4ccccc34)ccc2O[C@H]1CN(C)Cc1ccc(-c2ccccc2)cc1
-0.5 | 3.0 | 8.6 | 0.1 | CCC(=O)N[C@H]1C=C[C@H](CC(=O)NCc2ccc(OC)cc2)O[C@@H]1CO
-3.2 | 6.9 | 13.7 | 0.7 | C[C@@H]1CN([C@H](C)CO)C(=O)c2cc(C3=CCCCC3)cnc2O[C@@H]1CN(C)Cc1ccc(C(=O)O)cc1
3.2 | 1.7 | 6.6 | -5.7 | CC(C)NC(=O)N(C)C[C@H]1OCCCC[C@@H](C)Oc2ccc(NC(=O)NC3CCCCC3)cc2C(=O)N([C@H](C)CO)C[C@@H]1C
10.6 | -2.6 | 1.9 | 2.1 | C[C@H](CO)N1C[C@H](C)[C@H](CN(C)C(=O)Nc2ccc3c(c2)OCO3)Oc2ncc(C#Cc3ccc(F)cc3)cc2C1=O

The list continues:
AF4-AF9 inh | rRNA inh HTS | rRNA inh HTS OD600 | rRNA inh HTS RFP | SMILES
1.4 | -1.9 | -2.3 | 8.1 | COc1ccc(CNC(=O)c2cc3c(c(-c4cccc(-c5ccc(C#N)cc5)c4)n2)[C@@H](CCO)N([S@](=O)C(C)(C)C)C3)cc1
-3.3 | -12.9 | -1.3 | -1.6 | COC(=O)c1ccc2nc(-c3ccccc3)c(Cc3cccc(Cl)c3)n2c1
5.1 | -7.5 | -21.5 | 1.8 | C[C@@H]1CN([C@H](C)CO)C(=O)c2cccc(NC(=O)NC3CCCCC3)c2O[C@H]1CN(C)CC1CCCCC1
0.4 | -2.2 | -10.6 | 0.3 | Cc1ccc(S(=O)(=O)N[C@H]2CC[C@H](CCn3cc(C4CCCCC4)nn3)O[C@H]2CO)cc1
-0.8 | 1.3 | 6.5 | -0.3 | C[C@@H]1CN([C@@H](C)CO)C(=O)c2cc(NC(=O)Nc3cccc4ccccc34)ccc2O[C@@H](C)CCCCO[C@H]1CN(C)C(=O)Nc1ccccc1
0.9 | -0.2 | 2.0 | -3.0 | O=C(N[C@H]1CC[C@H](CCNS(=O)(=O)c2ccccc2)O[C@@H]1CO)c1cnccn1
-7.9 | 6.4 | 15.1 | 1.1 | Cc1ccc(S(=O)(=O)Nc2ccc3c(c2)C(=O)N([C@H](C)CO)C[C@@H](C)[C@H](CN(C)Cc2ccc(C(=O)O)cc2)O3)cc1
0.0 | 0.8 | 5.8 | -5.3 | FC(F)(F)c1ccc(Cl)c(Nc2nnc(-c3ccncc3)s2)c1
-0.7 | -2.1 | -5.2 | -0.4 | C[C@H](CO)N1C[C@H](C)[C@@H](CN(C)S(=O)(=O)c2ccc(Cl)cc2)Oc2ccc(NC(=O)CCC(F)(F)F)cc2C1=O
4.4 | 3.0 | 0.5 | -0.9 | COc1ccccc1CN1C[C@@H](C)[C@@H](OC)CN(C)C(=O)c2cc(NC(C)=O)ccc2OC[C@H]1C
-3.0 | -4.2 | 5.3 | -4.8 | C[C@@H]1CCCCO[C@@H](CN(C)Cc2ccccc2)[C@@H](C)CN([C@H](C)CO)C(=O)c2cc(NC(=O)Nc3ccc(C(F)(F)F)cc3)ccc2O1
-4.5&-0.1&-0.5 | 1.7&-0.6 | 11.1&0.0 | -0.5&-0.1 | Cc1cccc(S(=O)(=O)N(C)C[C@@H]2OCc3cnnn3CCCC(=O)N([C@@H](C)CO)C[C@@H]2C)c1

Part of the list above, in markdown.
| compound | AF4-AF9 inh | rRNA inh HTS | rRNA inh HTS OD600 | rRNA inh HTS RFP |
| --- | --- | --- | --- | --- |
| CCS(=O)(=O)Nc1ccc2c(c1)C(=O)N(C)[C@@H]1CC[C@@H](CC(=O)N3CCN(C)CC3)O[C@H]1CO2 | -2.7 | 4.2 | -0.8 | -1.1 |
| C[C@@H]1CN([C@H](C)CO)C(=O)c2cc(C3=CCCCC3)cnc2O[C@@H]1CN(C)Cc1ccc(C(=O)O)cc1 | -3.2 | 6.9 | 13.7 | 0.7 |
| C[C@@H]1CN([C@@H](C)CO)C(=O)Cc2cc(NC(=O)CCCN(C)C)ccc2O[C@H]1CN(C)C(=O)Nc1ccc(F)cc1 | -0.9 | 1.8 | 9.2 | -0.4 |

Carrying on:
AF4-AF9 inh | rRNA inh HTS | rRNA inh HTS OD600 | rRNA inh HTS RFP | SMILES
-1.6 | 2.5 | 6.5 | -4.1 | COCC(=O)N1[C@@H]2c3ccc(C4=CCCCC4)c(=O)n3C[C@@H]2[C@@H](CO)[C@@H]1C(=O)N1CCCCC1
-0.1 | -5.8 | -20.4 | -6.2 | CC1(C(=O)Nc2ccccc2F)CCN1C(=O)Cc1ccc(-c2ccccc2)cc1 (configuration not stated)
-1.6 | 5.2 | 5.5 | -2.5 | C[C@@H]1CN([C@H](C)CO)C(=O)c2cc(NS(=O)(=O)c3cn(C)cn3)ccc2O[C@@H](C)CCCCO[C@@H]1CN(C)C(=O)NC1CCCCC1
-14.8 | 1.7 | 1.2 | -2.1 | C[C@@H]1CCCCO[C@@H](CN(C)C(=O)Nc2ccc(C(F)(F)F)cc2)[C@@H](C)CN([C@H](C)CO)C(=O)c2cc(NC(=O)c3ccccc3)ccc2O1
-0.7 | 12.7 | 10.9 | 2.4 | COc1ccc(-c2cc(NC(C)=O)c3ncc(-c4cccc(C(C)=O)c4)n3c2)cc1OC
-0.9 | 5.0 | 19.2 | -7.1 | O=C(C[C@H]1CC[C@H](NC(=O)c2ccc(F)cc2)[C@@H](CO)O1)NCCc1ccncc1
0.8 | -7.4 | -3.1 | -4.5 | COCC#Cc1ccc2c(c1)O[C@@H](CN(C)C(=O)c1ccccc1F)[C@@H](C)CN([C@@H](C)CO)S2(=O)=O
43.8* | -0.9 | -2.0 | -0.6 | CCCNC(=O)N1CC2(CCN(C(=O)C3CCC3)CC2)c2c([nH]c3cc(OC)ccc23)[C@@H]1CO
